HCMV NEC inh = disrupts HCMV UL50-UL53 complex binding | HTRF UL50-UL53 interaction, normalized percent inhibition | inhibition, % (concentration not given with the values) | 190,000 compounds, 0.15% hits | AID 1918969;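 active = both replicates at 50% or more, plus weaker picks with an unusually low signal ratio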;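 also: stock transfer was 100 nL into about 20 µL; 0% = negative control wells and 100% = wells with untagged competitor protein; inactives centre near -12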
GIV Gai3 FP = blocks GIV peptide binding to rat Galpha-i3 | 210,000 compounds, 0.42% hits | percent of control (FP), % (test concentration not listed) | Galpha-i3/FITC-GIV peptide fluorescence polarization, 90 min; active compounds read low; scaled: aluminum fluoride 0%, vehicle 100% | P08753;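 active = replicate mean at 85% of control or lower, very high polarization wells dropped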;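 also: lower values mean more displacement of the GIV peptide from Galpha-i3; wells of about 15 µL received 100 nL stock; the first replicate is given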
Target sequence (P08753 whole entry, looked up): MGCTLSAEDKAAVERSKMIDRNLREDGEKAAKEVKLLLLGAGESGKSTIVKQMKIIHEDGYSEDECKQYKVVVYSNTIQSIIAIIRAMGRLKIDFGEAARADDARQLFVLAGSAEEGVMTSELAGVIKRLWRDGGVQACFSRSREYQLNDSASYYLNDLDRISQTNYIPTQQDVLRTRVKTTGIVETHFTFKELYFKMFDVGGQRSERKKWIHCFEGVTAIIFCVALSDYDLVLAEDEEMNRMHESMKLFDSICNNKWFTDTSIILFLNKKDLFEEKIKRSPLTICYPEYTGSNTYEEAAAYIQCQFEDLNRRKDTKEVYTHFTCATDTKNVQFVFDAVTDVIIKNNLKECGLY
Sa growth inh = S. aureus growth inhibition; S. aureus RN4220 growth, OD600, 20 h, 42 °C; active compounds read low; relative growth, % (no concentration beside the values); 170,000 compounds, 0.53% hits; AID 720641;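 active = growth at 42 °C up to 50% and 20 or more points under that at 30 °C, or under 10% at both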;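 also: 300 nL library stock went into each well; scaled to the means of positive and negative controls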
Sa growth inh second temp = further read-out of Sa growth inh, marked with its call; relative growth, %; measured here: growth at 30 °C;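 optical density after 20 h as mean of two plates; 100% = untreated growth and lower means inhibition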
* = called active by the depositor; x = not tested or not shown; & = joins results of further samples. These rows are one share of the data; rates above refer to the full screens.

SMILES	HCMV NEC inh	GIV Gai3 FP	Sa growth inh	Sa growth inh second temp
c1ccc(CNC2=NCCS2)cc1	-18	x	129	85
Cc1ccccc1-c1nn2c(=O)cc(CN3CCN(C(=O)COc4ccccc4Cl)CC3)nc2s1	x	102	96	92
c1cncc(C2NCCc3[nH]cnc32)c1 (centres undefined)	-15	103	x	x
O=C1CC(=O)N(Cc2ccccc2)C(=O)N1	41	99	92	86
O=C(COC(=O)Cc1ccccc1)Nc1ncc(Cl)cc1Cl	9	x	107	97
CCCC12CNCC(C)(CNC1)C2=O	x	101	98	97
CCNC(=O)C1OC(n2cnc3c(N)ncnc32)C(O)C1O (centres undefined)	-1	109	72	82
Cc1nc2ccccc2c(=O)n1-c1ccc(Br)cc1	-17	104	86	87
CCn1c(O)c(N=Nc2ccc(S(=O)(=O)N3CCOCC3)cc2)c(=O)n(CC)c1=S	-86	x	88	86
CNCc1cccnc1	-10	x	94	76
O=C1C2CCN(CC2)C1Cc1ccc2ccccc2c1O (centres undefined)	-46	101	98	78
Cc1ccc(CN(Cc2ccccc2)C(=S)NCC(=O)N2CCC3(CC2)OCCO3)o1	x	105	104	89
CCSc1sc(CC)cc1CCl	-17	98	90	85
COC(=O)C1=C(N)Oc2c(c(=O)oc3ccccc23)C12C(=O)N(C)c1ccccc12 (centres undefined)	-17	98	100	83
CC(=O)OC1CC2(C)C(CCC3C2CCC2(C)C(OC(C)=O)CCC32)CC1=O (centres undefined)	-10	102	90	93

Four structures from above, sorted by SMILES length, rising.
SMILES	HCMV NEC inh	GIV Gai3 FP	Sa growth inh	Sa growth inh second temp
c1cncc(C2NCCc3[nH]cnc32)c1 (centres undefined)	-15	103	x	x
O=C(COC(=O)Cc1ccccc1)Nc1ncc(Cl)cc1Cl	9	x	107	97
CCNC(=O)C1OC(n2cnc3c(N)ncnc32)C(O)C1O (centres undefined)	-1	109	72	82
Cc1ccccc1-c1nn2c(=O)cc(CN3CCN(C(=O)COc4ccccc4Cl)CC3)nc2s1	x	102	96	92

(listing goes on)
SMILES	HCMV NEC inh	GIV Gai3 FP	Sa growth inh	Sa growth inh second temp
CCCc1nc(SCC(=O)c2ccc(Cl)cc2)nc(OC(=O)N(C)C)c1C	2	99	103	102
C[C@]12Cc3cn4c(nc3C=C1CCC1C2CC[C@@]2(C)[C@H]1CC[C@@]2(O)C#N)nc1ccccc14 (some centres undefined)	-22	106	x	x
Cc1ccc(C)c(C(C)CN)c1 (centres undefined)	13	x	85	91
C=CC1CN2CCC1CC2C(OC(=O)CCC(=O)O)c1ccnc2ccccc12 (centres undefined)	10	100	101	79
CCN1CCN(c2ccc(N)cc2)CC1	-22	102	x	x
N#CC[N+]12CCN(CC1)CC2	1	x	101	88
Clc1cc(Cl)cc(NC2=NCCS2)c1	21	111	93	72
Cn1c(N2CCNCC2)nc2ccccc21	17	x	104	101
CCCN1CCC(NC(C)CCCC(C)(C)O)CC1 (centres undefined)	9	109	97	107
CSc1nnc(CCN)n1C	8	107	75	109
CCOC(=O)C1=C(C)OC(N)=C(C(=O)OCCOC)C12C(=O)Nc1ccc(Br)cc12 (centres undefined)	-15	99	x	x
Cc1c(C(=O)N2CCC3(CC2)OCCO3)sc2nc(-c3ccccc3)cn12	x	107	113	69
COCCCn1c(OC(=O)N(C)C)c(C)c(C)nc1=S	15	112	104	94
O=S(=O)(c1ccccc1)N1CN2CCN(C2)C1	-32	x	107	69
OC(c1ccccc1)(c1ccccc1)C1CCCN1 (centres undefined)	45	100	102	99
Cc1ccc(C(=O)CN2CCCC(C)C2)cc1 (centres undefined)	-30	x	101	93
CCCSc1nc2ccccc2c(=O)n1-c1ccccc1F	-15	x	79	50
CNCCn1ccc2ccccc21	9&1&-25	100	90	86
Cn1c(CCN)nc2ccccc21	x	103	103	91
Cc1ccc(CN(C(=O)Nc2ccc(C)c(F)c2)C2CCN(Cc3ccccc3)CC2)o1	-30	101	100	60
OC(CNC1CCCC1)c1ccccc1 (centres undefined)	-6	x	88	98
O=c1c2ccccc2nc(-c2ccccc2)n1-c1ccccc1O	18	106	87	93
CCOC(=O)C1(O)c2ccccc2-c2ccccc21	-12	x	96	90
c1ccc2c(N3CCNCC3)cccc2c1	-21	103	x	x
CC(O)(CNC12CC3CC(CC(C3)C1)C2)c1ccc(Cl)cc1 (centres undefined)	-27	x	103	76
O=P1(NCCCl)OCCCN1CCCl (centres undefined)	-28&-22&-14&-31	108	89&104	91&93
CCC(C)NC(=O)CN1C(=O)CN=C(c2ccccc2)c2ccccc21 (centres undefined)	-10	102	x	x
O=C(Cn1c2ccccc2c(=O)c2ccccc21)Nc1ccc([N+](=O)[O-])c(Br)c1	-28	99	x	x
Cc1oc(-c2ccc(Cl)cc2)nc1CS(=O)CC(=O)N1CCC2(CC1)OCCO2 (centres undefined)	-13	105	102	87
COc1ccccc1NC(=O)CN1CC=C(c2cnn(C)c2)CC1	-42	104	x	x

In the list so far, these contain two or more sulfur atoms.
SMILES	HCMV NEC inh	GIV Gai3 FP	Sa growth inh	Sa growth inh second temp
CCn1c(O)c(N=Nc2ccc(S(=O)(=O)N3CCOCC3)cc2)c(=O)n(CC)c1=S	-86	x	88	86
CCSc1sc(CC)cc1CCl	-17	98	90	85

3 consecutive entries from above, for reference:
SMILES	HCMV NEC inh	GIV Gai3 FP	Sa growth inh	Sa growth inh second temp
O=C(Cn1c2ccccc2c(=O)c2ccccc21)Nc1ccc([N+](=O)[O-])c(Br)c1	-28	99	x	x
Cc1oc(-c2ccc(Cl)cc2)nc1CS(=O)CC(=O)N1CCC2(CC1)OCCO2 (centres undefined)	-13	105	102	87
COc1ccccc1NC(=O)CN1CC=C(c2cnn(C)c2)CC1	-42	104	x	x

Taken from above:
HCMV NEC inh result of O=C(Cn1c2ccccc2c(=O)c2ccccc21)Nc1ccc([N+](=O)[O-])c(Br)c1 → -28
Sa growth inh second temp result of Cc1ccccc1-c1nn2c(=O)cc(CN3CCN(C(=O)COc4ccccc4Cl)CC3)nc2s1 → 92
GIV Gai3 FP result of CC(=O)OC1CC2(C)C(CCC3C2CCC2(C)C(OC(C)=O)CCC32)CC1=O (centres undefined) → 102
Sa growth inh second temp result of Clc1cc(Cl)cc(NC2=NCCS2)c1 → 72

The listing continues.
SMILES	HCMV NEC inh	GIV Gai3 FP	Sa growth inh	Sa growth inh second temp
CC(N)Cc1c[nH]c2ccc(O)cc12 (centres undefined)	-10&-8	100	x	x
COc1cc(-n2c(SC)nc3ccccc3c2=O)c(OC)cc1Cl	-8	107	100	98
Cc1cc(OC(C)C)c2c3c(c(=O)oc2c1)CCCC3	-42	x	93	82
CCc1ccc(N2C(=O)/C(=C/c3ccc(OCC(=O)O)c(Br)c3)C(=O)NC2=S)cc1	-30	57*	x	x
CCC(C)N=Cc1c(O)n(-c2ccccc2)c(=O)[nH]c1=O (centres undefined)	-11	100	99	86
Cc1ccc(S(=O)(=O)Oc2ccccc2C=C2C(=O)N(C)C(=O)N(C)C2=O)cc1	11	97	x	x
Cc1cc2oc(=O)c3c(c2c(O)c1CN(C)C)CCCC3	-17	x	87	83
CSc1ccc(CNC2CN3CCC2CC3)cc1 (centres undefined)	x	95	97	89
Cc1cccc(OP(N)(N)=O)c1C	-15	x	76	88
CCCN(CCC)CCc1ccc(O)c(O)c1	-35	106	x	x
O=c1cc(O)c2ccccc2o1	-3	104	60	63
O=c1[nH]c2ccccc2n1C1CCN(CCCC(c2ccc(F)cc2)c2ccc(F)cc2)CC1	-17&-19&-2&6&-4&-12	104&99	63&64	29&45
CC12CN3CC(C)(CN(C1)C3c1ccccc1)C2 (centres undefined)	x	94	93	91
N#Cc1ccc(N2CCNCC2)nc1	-9	102	111	100
CN(C(=O)c1ccco1)C1(c2ccccc2Cl)CCCCC1=O (centres undefined)	-24	x	104	92
C=Cc1ccc(Cn2c(C)c(CNCCc3cc(OC)ccc3OC)c(C(=O)O)c2C)cc1	-10	106	106	94
CN1CCc2nc(SCc3cccnc3)c(C#N)cc2C1	-28	99	108	72
O=c1c2ccccc2[nH]c(=S)n1-c1ccc(Cl)c(Cl)c1	-47	99	80	82
COc1ccc2c(c1)c(C(=O)n1ccnc1)c(C)n2C1CCCCC1	-8	x	124	88
COC(=O)C1=C(C)NC(=O)C12C(C#N)=C(N)Oc1ccccc12 (centres undefined)	-25	99	62	36
COc1ccc(CC(N)=O)cc1OC	1	101	102	75
CC(C)Oc1ccc(C2SCC(=O)Nc3c2c(-c2ccccc2)nn3-c2ccccc2)cc1 (centres undefined)	0	108	x	x
CN1C(=O)C(Cc2nc3ccccc3c(=O)n2-c2ccccc2)c2ccccc21 (centres undefined)	-4	112	112	70
CC1(C)CC2CC(C)(CN2Cc2cccnc2)C1 (centres undefined)	13	100	97	93
OC1(c2ccc(F)cc2)CCNC1 (centres undefined)	-3	103	107	93
O=C1C2CCN(CC2)C12CC2c1ccc(C(F)(F)F)cc1 (centres undefined)	-8	106	107	99
CCOc1ccc(CN(CCc2ccc3c(c2)OCO3)Cc2ccc(C)cc2)cc1	-12	99	84	84
Cc1nn(Cc2ccccc2)c(C)c1C(=O)OCC(=O)Nc1ccccc1SCC#N	-34	x	77	93
COc1ccc(CC2C(=O)N(C)C(=O)N(C)C2=O)cc1	-9	107	108	76
NC(=O)c1cn(C2CCCCC2)c2ccccc2c1=O	-2	104	113	75
O=C(NCCN1CCOCC1)c1cc2cccnc2n(Cc2ccc(F)cc2)c1=O	-28	107	x	x
CC1=C(C(=O)OC(C)C)C2(C(=O)N(C)c3ccccc32)C(C#N)=C(N)O1 (centres undefined)	-4	101	74	35
COC(=O)CC1=C(C(=O)OC)C2(C(=O)N1)C(C#N)=C(N)Oc1ccccc12 (centres undefined)	-1	104	107	66
CN1CCCSC1=Nc1ccccc1F	-10	104	120	94
O=C1/C(=C\c2ccc(N3CCOCC3)cc2)N2CCC1CC2	x	104	94	78
Cc1ccccc1CN1CCCN(Cc2ccccc2)S1(=O)=O	1	105	94	100
CN1CCCC1c1ccc(N)nc1 (centres undefined)	-14	109	105	97
CCN(CC)CCOC(=O)C(O)(c1ccccc1)c1ccccc1	-37	x	100	99
O=c1c2ccccc2nc(/C=C\c2ccccc2F)n1-c1ccc(O)cc1	x	107	140	98
Cc1cc(C=C(C#N)C#N)c(C)n1CC(F)(F)F	-42	x	98	99
CCOP(=S)(OCC)C1(C#N)CC1	-26	x	90	90
Cn1c(O)c(/C=C2/C=Nc3ccccc32)c(=O)n(C)c1=O	-4	100	94	91
C=CCN1C(=O)NC(=O)C(CCc2ccccn2)(CCc2ccccn2)C1=O	-1	110	97	81
CCN1CCN(Cc2cccc3cccnc23)CC1	-19	x	93	92
O=S1(=O)N(CCN2CC=C(c3c[nH]c4cc(F)ccc34)CC2)c2cccc3c2N1CCC3	-19	113	x	x
CCN(CC)c1ccc(C=C(C#N)C#N)cc1	-56	51*	85	89
CCN1CCN(c2cc(C)nc(C)n2)CC1	13	103	x	x
Cn1ccnc1P(=S)(c1nccn1C)N1CCOCC1	-20	x	100	89
CCOc1ccccc1C1NC(=S)NC(c2ccccc2OCC)C12C(=O)NC(=O)NC2=O (centres undefined)	x	95	104	85
c1ccc(CNCCc2c[nH]c3ccccc23)cc1	1	102	100	93
CN1C(=O)C(=Cc2cn(CC(=O)N3CCCC3)c3ccccc23)C(=O)N(C)C1=O	x	103	105	85
O=c1ccc2ccc3occc3c2o1	-21	103	98	69
CCN1CCN(c2ccccc2N)CC1	-18	106	98	83
COc1ccc(Cl)cc1NC(=O)CN1C(=O)CN=C(c2ccccc2)c2ccccc21	15	98	x	x
CCOC(=O)C(O)(c1csc(N)n1)c1c(C)nn(-c2ccc(C)cc2)c1N (centres undefined)	-38	x	112	91
C=CCNC(=O)c1c(N)n(CCN2CCOCC2)c2nc3ccccc3nc12	-51	x	89	68
O=c1[nH]c(=S)[nH]c(O)c1N=Nc1ccc(S(=O)(=O)N2CCc3ccccc32)cc1	-26	102	98	89
COc1cc2c3c(c1O)-c1c(cccc1OC)CC3N(C)CC2 (centres undefined)	-11	101	96	90
CC[C@@]1(O)C(=O)OCc2c1cc1n(c2=O)Cc2cc3ccccc3nc2-1	-83&-50&-91&-87&-79	98&108	88	86
Cc1ccc(N2Cc3ccccc3C2=N)cc1	-6	x	100	95
The list goes on:
SMILES	HCMV NEC inh	GIV Gai3 FP	Sa growth inh	Sa growth inh second temp
O/N=C1\CCC2CN(C3CCCCC3)CC2C1 (centres undefined)	-1	x	110	85
CC1(C)CC2(CCCN(CC#N)C2)CCO1 (centres undefined)	3	x	110	89
CC1(C)CC(n2cccc2)CC(C)(C)N1	-7	x	88	91
CN(C)C1=C(C#N)C(c2ccccc2)=NP(N(C)C)(N(C)C)=N1	-27	x	100	91
CCCC(C)C1(CC)C(=O)NC(=O)NC1=O (centres undefined)	-46	x	97	93
COc1ccccc1NC1=NCCS1	-10	x	90	88
CC(CN1CC2CC(C1)c1cccc(=O)n1C2)SC(=N)N (centres undefined)	-9	x	105	114
CCCN(CCC)C1CCc2ccc(O)cc2C1 (centres undefined)	6&-19	102	x	x
O=C1[C@@H]2CCCN2[C@@H](c2cccc(Cl)c2)N1c1ccccn1	-29	99	x	x
O=C(NCCc1c[nH]c2ccccc12)c1cc2cccnc2n(Cc2ccccc2)c1=O	0	109	x	x
N#CC(C#N)=Cc1ccc(O)c(O)c1	-5&-6&-38	135	x	x
Cc1ccc(-c2nc(CN3C(=O)CN=C(c4ccccc4)c4cc(Cl)ccc43)c(C)o2)cc1	-11	103	119	71
C1=C(c2ccccc2)CCN(Cc2nnc(-c3ccco3)o2)C1	16	x	113	98
Cc1cccc(C)c1OC(=O)Cc1ccccc1	x	108	113	96

From PubChem BioAssay
